Source: PubChem
Sfp inh – Sfp phosphopantetheinyl transferase inhibition; 310,000 tested, 3.5% active; Biochemical Sfp PPTase activity, qHTS; Q9F4F7; Potency, µM, for the others: max response, negative = inhibition, actives largely listed as inhibitors; AID 1490; active = well fitted inhibition curve with a large enough effect; inconclusive = small, poorly fitted or top-dose-only effect, or another doubt; inactive = no such curve, though single readings can be large or run the other way;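 also: the enzyme is Sfp with the accession as filed and its product quenches rhodamine fluorescence; potency is read from the fitted curve at half-maximal effect; 0% = enzyme reaction without inhibitor and -100% = no enzyme wells; top concentration of the series not given in the record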
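Compounds were incubated with enzyme (final 15 nM) for 15 min at room temperature before substrate addition started the reaction. Fluorescence at 525 nm excitation, 598 nm emission was recorded immediately and after 30 minutes.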
Menin MLL FP FL – menin-MLL binding inhibition, fluorescein peptide; Fluorescence polarization, fluorescein-MLL peptide displacement from menin; FP activity change, % at 61.4 µM; 290,000 tested, under 10 active; AID 1766; inconclusive = falling polarisation curve, or a change in total fluorescence; inactive = total fluorescence flat and polarisation flat or rising; no compound was filed as active; the % refers to the polarisation; negative = inhibition;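 also: % of control where 0% means no effect; inhibitors lower the polarisation; unlabelled MLL peptide was the positive control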
CtBP-E1A inh – inhibitors of CtBP/E1A interaction; AlphaScreen GST-E1A/His-CtBP binding, 1536-well; active compounds read low; control for the full effect not named in the record; activity change, % (no concentration beside the values); 340,000 tested, 0.49% active; AID 651724; in the data active means activity change below about -65%; inconclusive means about -30% to -65%; inactive means above about -30%; also: % is scaled to controls: 0 for no effect and ±100 for the full control effect
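Homogeneous bead-based format: GST-tagged E1A captured on glutathione donor beads, His-tagged CtBP on nickel acceptor beads; compounds precede bead addition by 2 h at 37 °C.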
gsp agonist – activates gsp, the McCune-Albright syndrome mutation | gsp mutant cells, cAMP HTRF, 30 min; control for the full effect not named in the record | Potency, µM (highest dose often 76.9 µM), for inactives: top-dose activation (cAMP increase), actives largely listed as activators | 340,000 tested, 0.13% active | AID 624287; active = well fitted activation curve with a large enough effect; inconclusive = small, poorly fitted or top-dose-only effect, or another doubt; inactive = no such curve, though single readings can be large or run the other way; cell line not stated here;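 also: phosphodiesterase inhibitor Ro 20-1724 added with compounds to block cAMP breakdown; potency is read from the fitted curve at half-maximal effect; nearly all actives have a fitted effect of over 60% in size; about a fifth of the inactives were tested at one dose only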
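Cells in DMEM/10% FBS with G418 were pretreated with compounds in DMSO plus […] (300 uM stock) for 30 min at 37C. cAMP was measured by HTRF (cAMP-d2 plus anti-cAMP antibody-K) after 30 min at room temperature.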
ClpP mod – qHTS Assay for Activators of ClpP. purified B. subtilis ClpP, FRET peptide cleavage, 20 min. Potency, µM (titrated, usually from 57.5 µM), without a hit: at the highest dose activity change, negative = active. 340,000 tested, 1.9% active. AID 651965, 2013; active = well fitted falling curve with a large enough effect; inconclusive = small, poorly fitted or top-dose-only effect; inactive = no such curve, though single readings can be large or run the other way; also: potency is read from the fitted curve at half-maximal effect; the source files actives as falling curves though it sought activators and does not explain the sign; nearly all actives have a fitted effect of over 65% in size; many hits overshoot -100%
Target sequence (P80244 whole entry, looked up): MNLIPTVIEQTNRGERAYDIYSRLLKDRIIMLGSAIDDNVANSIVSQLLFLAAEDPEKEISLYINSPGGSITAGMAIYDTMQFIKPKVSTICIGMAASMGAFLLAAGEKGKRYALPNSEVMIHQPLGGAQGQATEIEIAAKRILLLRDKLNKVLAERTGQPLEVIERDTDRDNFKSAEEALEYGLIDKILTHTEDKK
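ClpP 10 microg/mL final, pH 8 Tris/KCl buffer with BSA, glycerol, Tween-20; compound pinned in; FRET-FV substrate; RT 20 min; Ex320/Em430; ΔFRET vs ADEP 5.8 microM, DMSO, no enzyme.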
gsp antag – gsp mutant antagonism | gsp-mutant cells, cAMP HTRF, 30 min; control for the full effect not named in the record | 340,000 tested, 0.4% active | Potency, µM (doses to about 76.9 µM), for the others: top-dose activity change, negative = inhibition, usual class: inhibitors; active = falling curve of any shape with a large fitted effect; inconclusive = falling curve, mostly with a smaller effect; inactive = flat or rising curve; cell line not stated here;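 also: intracellular cAMP measured with PDE inhibitor Ro 20-1724 present during compound exposure; potency is read from the fitted curve at half-maximal effect; % is scaled to controls: 0 for no effect and ±100 for the full control effect; nearly all actives have a fitted effect of over 65% in size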
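G418-selected cells were plated in DMEM/10% FBS for 16-24 h at 37C, then treated with compounds plus the PDE inhibitor […] (300 uM solution added) for 30 min at 37C. Intracellular cAMP was measured by HTRF after 30 min lysis at room temperature.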
TRPV1 potentiator – potentiators of human vanilloid receptor 1 (TRPV1); AID 540277; TRPV1-expressing cells, Fluo-8 calcium influx, capsaicin EC20 potentiation; host cell line not named in the record; control for the full effect not named in the record; 320,000 tested, 0.02% active; potentiation, % at 8.33 µM; active means potentiation above 80%; inconclusive means 30% to 80%; inactive means below 30%; also: 0% is about no effect
Target sequence (Q8NER1 whole entry, looked up): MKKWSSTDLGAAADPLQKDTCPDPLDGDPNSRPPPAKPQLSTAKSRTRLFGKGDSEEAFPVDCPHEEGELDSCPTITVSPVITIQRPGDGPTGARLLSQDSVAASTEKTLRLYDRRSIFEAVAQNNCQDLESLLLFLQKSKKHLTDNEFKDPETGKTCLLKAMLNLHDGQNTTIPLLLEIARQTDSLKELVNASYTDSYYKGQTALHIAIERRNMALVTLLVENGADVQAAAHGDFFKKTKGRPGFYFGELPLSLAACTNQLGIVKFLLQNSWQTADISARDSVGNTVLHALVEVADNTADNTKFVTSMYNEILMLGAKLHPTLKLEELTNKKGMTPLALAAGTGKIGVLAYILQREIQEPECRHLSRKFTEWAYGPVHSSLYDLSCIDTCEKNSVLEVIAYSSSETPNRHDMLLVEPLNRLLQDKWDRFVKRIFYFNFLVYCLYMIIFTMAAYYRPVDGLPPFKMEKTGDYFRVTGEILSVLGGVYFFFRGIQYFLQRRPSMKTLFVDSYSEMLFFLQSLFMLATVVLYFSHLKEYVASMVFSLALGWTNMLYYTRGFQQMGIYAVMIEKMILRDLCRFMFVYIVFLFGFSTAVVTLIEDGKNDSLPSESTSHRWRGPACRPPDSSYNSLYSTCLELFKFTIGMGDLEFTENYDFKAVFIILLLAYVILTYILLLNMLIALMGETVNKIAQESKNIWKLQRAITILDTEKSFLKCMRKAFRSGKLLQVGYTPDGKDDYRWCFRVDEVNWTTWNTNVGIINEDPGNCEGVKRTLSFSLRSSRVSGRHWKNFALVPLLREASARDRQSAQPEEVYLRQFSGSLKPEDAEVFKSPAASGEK
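Fluo-8 calcium influx in TRPV1-expressing cells, kinetic read (ex 480/em 520 nm). Compound added and read 3 min for agonist activity, followed by capsaicin at EC20 final and 2 min further read for enhancement.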
The depositor's hits bear a star; ? = inconclusive; . = no result given; & = joins results of further samples; [ ] = another dose, or the depositor's remark.

Molecule	Sfp inh	Menin MLL FP FL	CtBP-E1A inh	gsp agonist	ClpP mod	gsp antag	TRPV1 potentiator
O=c1/c(=C/c2ccc(O)cc2)sc2nc3cc(Br)cnc3n12	?	?	.	.	.	.	9.7
O=C(NCCCNc1ccc(C(F)(F)F)cc1[N+](=O)[O-])c1ccc(F)cc1	-15.8%	4.5	-15.1	-55.9%[inhibitor]	0.5%	-29.7%	-20.6
Cn1ccnc1SCC(=O)Nc1cccc(O)c1	10.0%	-3.0	12.0	15.9%	-2.5%	1.0%	11.4
CC(C)(C)c1ccc(NC(=O)COC(=O)C2(C)CC2(Cl)Cl)cc1 (stereo not given)	12.4%	5.5	15.2	0.4%	1.1%	?	-14.7
Cc1ccccc1NC(=O)Cc1nc(COC(=O)/C=C/c2ccccc2)cs1	.	.	5.5	-3.9%[15.4 µM]	.	-14.0%	14.3
COc1ccc(/C=N/NC(=O)CN(C2=NS(=O)(=O)c3ccccc32)c2ccccc2)cc1OC	3.0%	.	-26.9	24.0%	-0.5%	6.8%	-7.0
COC(=O)Cc1cc(=O)n(-c2nc3ccccc3s2)[nH]1	-17.2%	8.8	4.9	-30.0%[inhibitor]	1.5%	-4.0%	20.9
CCOC(=O)Cn1nnnc1CN(Cc1cccs1)Cc1cc2cc(C)ccc2[nH]c1=O	-0.7%	-0.3	-9.4	2.5%	-29.9%	17.7%	2.2
O=C(CSc1cn[nH]n1)Nc1ccccc1C(=O)O	-4.0%	-7.8	2.8	15.6%[15.4 µM]	.	-2.7%	-5.1
CC(Sc1nnc(-c2ccc(Cl)cc2Cl)n1Cc1ccccc1)C(=O)Nc1nccs1 (stereo not given)	-0.4%	5.4	-2.2	-113.0%[inhibitor]	-5.1%	?	5.1
Cc1ccc(-c2nc3ncccc3o2)cc1NC(=O)COc1ccccc1	14.2%	2.2	1.7	15.2%	31.6µM*	-3.6%	0.2
CC(C)(C)S(=O)N1Cc2cc(CO)ccc2[C@H]1CCO (stereo not given in full)	.	.	2.1	-4.3%	-2.7%	.	.
COCCNC(=O)c1ccccc1NC(=O)CSc1ccc(C)cc1	14.1%	-1.6	5.0	?	-3.7%	4.2%	-6.2
Cc1ccc2nc(SCC(=O)NCc3ccco3)c(C#N)cc2c1	13.6%	5.1	-5.6	?	-6.5%	11.4%	26.4
COc1cccc(CC(=O)Nc2cc(S(=O)(=O)N3CCOCC3)ccc2OC)c1	.	.	2.7	50.6%[15.4 µM]	.	12.9%	-14.0
Cc1ccccc1C(=O)N=c1ccn(-c2nc3ccccc3nc2NS(=O)(=O)c2ccc(F)cc2)cc1	8.4%	?	.	?	-4.7%	-4.9%	-18.5
C/C(=N\NS(=O)(=O)c1ccc(Br)cc1)c1ccncc1	0.3%	.	2.6	0.5%	0.2%	8.9%	-7.5
COc1ccc(-c2[nH]nc3c2C(c2ccoc2)C(C#N)=C(N)O3)cc1 (stereo not given)	21.7%	1.1	-1.5	14.2%	1.2%	-8.4%	-4.0
CCOc1ncccc1C(=O)Nc1cccc(C(=O)Nc2cccc(S(=O)(=O)CCO)c2)c1	14.5%	-0.1	-16.0	-3.8%	-6.7%	-14.2%	16.6
COc1ccc(S(=O)(=O)N2CCN(c3ccccn3)CC2)c(OC)c1	11.8%	0.8	.	-30.0%[inhibitor]	-13.1%	2.5%	10.9
Cc1ccccc1-n1c(-c2ccc3ccccc3n2)n[nH]c1=S	-9.2%	1.6	-12.5	10.0%[15.4 µM]	.	-6.4%	8.3
O=C(c1cc2cc(F)ccc2[nH]1)N1CCN(C(=O)c2ccco2)CC1	?	.	.	4.1%	-11.9%	-5.9%	-7.9
CCOC(=O)/C(N=Nc1c(C)n(C)n(-c2ccccc2)c1=O)=C(/O)c1ccccc1	-6.5%	-2.3	-5.3	-2.2%[15.4 µM]	.	?	-10.8
Cc1oc(-c2ccccc2)nc1CS(=O)CC(=O)N1CCc2ccccc2C1 (stereo not given)	50.1µM*	-9.4	5.1	-8.8%	-5.1%	-8.2%	-6.1
Cc1cc(C(=O)N2CCC(Cc3ccccc3)CC2)ccc1[N+](=O)[O-]	-4.5%	1.7	-2.3	-60.1%[inhibitor]	1.7%	-13.6%	-10.3
COc1ccc(OCC(O)CN2CCN(c3ccccc3)CC2)cc1 (stereo not given)	2.6%	-1.3	7.1	?	0.2%	9.0%	3.4
CC1(C)Cc2c(cnn2-c2ccccc2)C(=O)/C1=N\NC(=O)c1ccncc1	.	.	-1.9	0.0%	-2.0%	2.6%	.
CCN1C(=O)N[C@@H](CCc2ccccc2)[C@@H](C(=O)OC)[C@H]1C	4.2%&12.3%	-3.0[11.7 µM]	3.8	.	-0.9%	-7.7%	-8.7
O=C(c1ccco1)N1CCN(C(c2ccccc2F)c2nnnn2CC2CCCO2)CC1 (stereo not given)	-10.4%	1.6	-2.8	6.4%	-3.9%	2.6%	-11.5
O=C(CSc1nnc(-c2ccccc2O)o1)Oc1ccc(OCc2ccccc2)cc1	-13.0%	-0.1	-16.5	-31.4%[inhibitor]	-0.2%	-0.9%	-3.7
Cc1cc(N2CCOCC2)nc(SCC(=O)c2ccccc2)n1	-4.9%	6.2	10.1	-0.9%	-0.4%	-8.1%	-11.8
COc1ccc(N(C(=O)c2cnccn2)C(C(=O)NC2CCCCC2)c2ccccc2)cc1 (stereo not given)	-0.6%	-5.5	-22.4	-33.0%[inhibitor]	.	-2.9%	-7.5
O=[N+]([O-])c1ccc(/C=N/Nc2ccnc3cc(Cl)ccc23)o1	-18.8%	.	-24.1	?	.	-16.7%	-4.1
Cc1onc(-c2ccccc2)c1C1=N/C(=C\c2ccccc2F)C(=O)O1	7.1%	0.7	3.1	-4.1%[15.4 µM]	.	5.6%	6.4
COc1ccc(C(=O)N2CCC(C(=O)O)CC2)c2ccccc12	0.5%	4.0	3.6	-27.2%[15.4 µM]	.	6.7%	8.1
O=C(COc1ccccc1)N1CCN(c2ccccc2)CC1	6.1%	-4.0	0.6	17.2%[15.4 µM]	.	-5.7%	-43.8
O=C(NCC(c1cccs1)N1CCOCC1)c1cccc(S(=O)(=O)Nc2ccc(F)cc2)c1 (stereo not given)	.	.	6.1	-98.1%[inhibitor]	0.2%	-15.2%	.
CCCN1C(=O)/C(=C2\SC(N3CCCCC3)=NC2=O)c2ccccc21	?	0.0	-6.8	0.0%	-0.4%	-12.0%	-14.1
CNC(=O)COC(=O)c1ccc(Cl)c(S(N)(=O)=O)c1	19.3%	-0.4	.	16.9%	0.7%	7.0%	15.6
COc1cccc(CN(C)C[C@@H]2OCc3cnnn3CCCC(=O)N([C@H](C)CO)C[C@H]2C)c1	.	.	5.3	-5.4%	1.7%	.	.
COCCNC(=O)c1ccc2nc(Cc3ccc(OC)c(OC)c3)oc2c1	8.2%	0.2	0.0	1.5%	-0.9%	5.1%	-13.4
Cn1cc(CN2CCC(C(=O)Nc3ccc(Oc4ccccc4F)cc3)CC2)cn1	6.9%	.	-10.8	5.0%	-1.7%	10.8%	19.6
O=C(C1CCN(c2nnc(-n3cccc3)s2)CC1)N1CCCCC1	1.2%	-1.8	-1.2	-31.4%[inhibitor]	0.0%	-10.8%	-20.9
CCOC(=O)C1(Cc2ccccc2C(F)(F)F)CCN(C2CCN(C(C)=O)CC2)CC1	13.1%	-2.8	3.1	6.3%[15.4 µM]	.	-1.3%	-0.6
COc1ccccc1NC(=O)NCCC1=CCCCC1	-7.7%	1.6	12.6	32.5%	0.8%	-2.3%	0.8
O=C(c1cc(-c2ccccc2Cl)nc2ccccc12)N1CCOCC1	10.1%	-1.6	-5.5	-15.8%	-27.7%	-14.6%	-15.5
O=C(Cc1c[nH]c2ccccc12)N/N=C/c1ccc(F)cc1	-5.6%	1.6	-0.1	-7.4%	0.4%	15.3%	?
CC1CCCN(C(=O)COC(=O)CNC(=O)c2ccc(Br)cc2)C1 (stereo not given)	.	.	3.3	6.1%[15.4 µM]	-1.6%	-4.4%	-0.8

Exported with two lines to a compound: 2 of the compounds above.
Below each compound: Sfp inh	Menin MLL FP FL	CtBP-E1A inh	gsp agonist	ClpP mod	gsp antag	TRPV1 potentiator
> Cn1cc(CN2CCC(C(=O)Nc3ccc(Oc4ccccc4F)cc3)CC2)cn1
 : 6.9%	.	-10.8	5.0%	-1.7%	10.8%	19.6
> O=C(C1CCN(c2nnc(-n3cccc3)s2)CC1)N1CCCCC1
 : 1.2%	-1.8	-1.2	-31.4%[inhibitor]	0.0%	-10.8%	-20.9

Complete entries as entered above. Order of values: Sfp inh	Menin MLL FP FL	CtBP-E1A inh	gsp agonist	ClpP mod	gsp antag	TRPV1 potentiator
Cc1ccc(-c2nc3ncccc3o2)cc1NC(=O)COc1ccccc1 across the screens: 14.2%	2.2	1.7	15.2%	31.6µM*	-3.6%	0.2
COCCNC(=O)c1ccccc1NC(=O)CSc1ccc(C)cc1 across the screens: 14.1%	-1.6	5.0	?	-3.7%	4.2%	-6.2

New compounds follow:
Molecule	Sfp inh	Menin MLL FP FL	CtBP-E1A inh	gsp agonist	ClpP mod	gsp antag	TRPV1 potentiator
CCn1c2ccccc2c2cc(NC(=O)C(=O)NCC3CCCO3)ccc21 (stereo not given)	10.4%	0.4	0.0	9.4%[15.4 µM]	0.1%	-10.6%	3.8
COc1ccc(SC[C@H](C)CN2CC[C@H](C(C)(C)C)CCC2=O)cc1	.	.	17.7	.	0.4%&1.9%	?	-1.6
CC(=O)Nc1ccc(S(=O)(=O)N2CCSC2c2ccc(C)cc2)cc1 (stereo not given)	-1.4%	-0.1	-11.7	-24.8%	-0.2%	-29.2%	13.7
COC(=O)c1[nH]c2cccc(C)c2c1NC(=O)CN1CCN(c2ccccc2OC)CC1	11.8%	0.3	5.6	-1.1%	-22.2%	9.6%	-8.2
CCNc1ccc(Br)cc(C(=O)/C=C/c2ccccc2Cl)c1=O	.	.	3.0	-16.7%	0.3%	-20.8%	.

Rewritten with values under each structure: part of the list above
Values in the order – Sfp inh	Menin MLL FP FL	CtBP-E1A inh	gsp agonist	ClpP mod	gsp antag	TRPV1 potentiator
- CC(C)(C)S(=O)N1Cc2cc(CO)ccc2[C@H]1CCO (stereo not given in full)
    .	.	2.1	-4.3%	-2.7%	.	.
- C/C(=N\NS(=O)(=O)c1ccc(Br)cc1)c1ccncc1
    0.3%	.	2.6	0.5%	0.2%	8.9%	-7.5
